Screens from PubChem BioAssay.
KCNQ2 block – KCNQ2 potassium channel inhibitors, primary screen, cell-based, CHO-K1, FluxOR thallium flux, B-score (AID 2156); B-score at 10 µM; O88943; 1.1% of 310,000 active; 20 min; stronger effect = lower value; only compounds with negative scores are shown here; some inactives read as strong as hits;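 active means fluorescence ratio B-score at most minus 3 library SDs, with starting brightness B-score within 2 library SDs, cut at about -5.5 in these data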
Target sequence (O88943 whole entry, looked up): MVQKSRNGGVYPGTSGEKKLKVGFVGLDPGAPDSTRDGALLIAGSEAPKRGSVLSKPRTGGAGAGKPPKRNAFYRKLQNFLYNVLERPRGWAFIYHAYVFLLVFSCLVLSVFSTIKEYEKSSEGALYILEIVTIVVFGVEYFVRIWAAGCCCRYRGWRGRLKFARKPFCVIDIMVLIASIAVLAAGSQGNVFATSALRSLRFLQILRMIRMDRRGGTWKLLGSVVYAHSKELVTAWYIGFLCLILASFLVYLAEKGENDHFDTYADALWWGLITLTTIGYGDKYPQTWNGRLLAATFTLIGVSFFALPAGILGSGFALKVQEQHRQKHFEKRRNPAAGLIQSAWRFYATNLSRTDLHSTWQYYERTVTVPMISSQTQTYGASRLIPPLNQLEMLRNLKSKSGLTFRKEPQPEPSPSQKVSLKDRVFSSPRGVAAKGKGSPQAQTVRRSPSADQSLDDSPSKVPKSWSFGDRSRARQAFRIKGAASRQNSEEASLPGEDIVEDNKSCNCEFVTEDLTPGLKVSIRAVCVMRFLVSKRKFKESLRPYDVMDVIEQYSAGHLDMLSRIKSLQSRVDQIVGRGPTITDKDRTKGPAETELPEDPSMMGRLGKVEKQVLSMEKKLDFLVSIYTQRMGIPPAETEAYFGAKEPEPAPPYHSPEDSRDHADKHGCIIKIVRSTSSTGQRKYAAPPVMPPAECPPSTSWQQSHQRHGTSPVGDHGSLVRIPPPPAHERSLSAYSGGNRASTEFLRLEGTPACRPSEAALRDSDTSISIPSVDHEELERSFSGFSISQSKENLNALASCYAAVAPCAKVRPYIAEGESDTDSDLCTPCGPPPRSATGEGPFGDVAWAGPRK
KCNQ2 block baseline – second read-out of KCNQ2 block, no call of its own (marks repeat the call); B-score; measured here: initial fluorescence intensity artifact check;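 brightness before thallium and not channel activity; 0 = typical well and far values either way flag optical interference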
Numbers without * were called inactive; i = inactive. A portion of the library, so the mix of outcomes need not match the whole.

SMILES	KCNQ2 block	KCNQ2 block baseline
COc1cc2c(cc1OC)C(C(=O)Nc1ccc(F)c(Cl)c1)CC(=O)N2 (stereo unspecified)	i	0.01
CCOc1ccccc1NC(=O)CNC(=O)c1nn(-c2ccc(OC)c(OC)c2)c(=O)c2ccccc12	i	0.03
O=C(CN(Cc1ccccc1Cl)C(=O)CN1C(=O)CSc2ccccc21)NC1CC1	i	-0.95
CC1=CS/C(=C(/C#N)C(=O)N2CCOCC2)N1c1ccccc1	i	-0.49
COc1ccc(C(CC(=O)c2ccccc2)CC(=O)c2ccccc2)cc1	i	0.91
CCN(c1ccccc1)S(=O)(=O)c1ccc(C(=O)N(CCCN(C)C)c2nc3c(C)cccc3s2)cc1	i	0.24
COc1cc2c(cc1OC)C(C(=O)NC(C)c1ccccc1)CC(=O)N2 (stereo unspecified)	i	-0.7
CCN1CCN(CCOCCOc2ccccc2)CC1	i	-1.4
Cc1ccc(C(C(=O)NC2CCCC2)N(C(=O)CCC(=O)Nc2cc(C)on2)c2ccccc2)cc1 (stereo unspecified)	i	0.73
CS(=O)(=O)N1CCN(C(=O)C2c3ccccc3Oc3ccccc32)CC1	i	-0.77
CCOc1ccccc1NC(=O)c1cccc2ccccc12	-5.5*	0.55*
Cc1ccc(S(=O)(=O)Cn2nnnc2C(c2ccccc2)N2CCN(c3ncccn3)CC2)cc1 (stereo unspecified)	i	1.7
CCCC(=O)NC(Nc1ccccc1OC)C(Cl)(Cl)Cl (stereo unspecified)	i	-0.04
COc1ccc(CCN(C)C(=O)CCc2nnc(-c3ccccc3)o2)cc1OC	i	0.61
CC1=C(C(=O)OC(C)C)C(c2ccccn2)n2ncnc2N1 (stereo unspecified)	i	1.1
Cc1ccc(S(=O)(=O)N2CCC(C(=O)N[C@H](C(=O)NC3CCS(=O)(=O)C3)C(C)C)CC2)cc1 (stereo partly specified)	i	2
CCN1CCN(c2ccc(N=Cc3ccccc3O)cc2)CC1	i	1.1
CCN(C(=O)/C=C/c1ccc(OC)cc1)C1CCCCC1	i	1.9
Cn1ncc(Cl)c(Oc2ccccc2)c1=O	i	-1.1
O=C(CCN1CCc2ccccc2C1)Nc1ccc2c(c1)OCO2	i	-0.05
Cc1ccc(C(=O)Nc2ccc(N3CCN(C)CC3)cc2)cc1	i	1.6
CC(C)(CO)NCC(=O)Nc1cc(C(F)(F)F)cc(NC(=O)CNC(C)(C)CO)c1Cl	i	0.47
CCN(CC)S(=O)(=O)c1cnccc1N1CCN(c2cccc(Cl)c2)CC1	i	-0.92
Cc1ccc(-c2nc3ncccn3c2Nc2ccc3c(c2)OCCO3)o1	i	-1.8
CC1CN(Cc2nc3c(c(=O)n(C)c(=O)n3C)n2CCN2CCOCC2)CC(C)O1 (stereo unspecified)	i	1.9

(cont.)
SMILES	KCNQ2 block	KCNQ2 block baseline
CC1(C)CCSC(/C=C/c2ccccc2)=N1	i	0.94
S=C(NCCc1c[nH]c2ccccc12)NC1CC1	i	0.04
Cn1c(=O)oc2cc(S(=O)(=O)NCCC(=O)NCc3ccc(F)cc3)ccc21	i	1.6
O=C1c2cccnc2C(=O)N1C1CCCCC1	i	0.65
Nc1ccc(Cl)c[n+]1Cc1cccc2cccnc12	i	-2.2
Cc1ccc(N2C(=O)CSC2c2ccc3c(c2)OCO3)cc1 (stereo unspecified)	i	-0.6
O=C(CNC(=O)c1ccco1)OCC(=O)c1cccc2ccccc12	i	-2
Cc1cc(C)cc(NC(=O)c2ccc(N3C(=O)C4CCCCC4C3=O)cc2)c1 (stereo unspecified)	i	0.83
O=[N+]([O-])c1ccccc1/C=C/C=N/Nc1nc(N2CCCCC2)nc(N2CCCCC2)n1	i	-1.6
O=C(CC(c1ccco1)C1CCCCC1=O)c1ccccc1 (stereo unspecified)	i	1.6
Cc1cc(-c2ccccc2)c2c(n1)sc1c(O)cc(=O)[nH]c12	i	-1.9
CCCCCC(=O)N1CC2(CC(c3cccc(NC(=O)CC)c3)=NO2)C[C@H]1C(N)=O (stereo partly specified)	i	0.43
COCCNC(=O)C(=O)NCC1OCCN1S(=O)(=O)c1ccc(F)cc1 (stereo unspecified)	i	0.08
CSCCCN1CC[C@@H](N2CCN(c3ccccc3F)CC2)[C@H](O)C1	i	-2.6
O=C(O)Cc1ccc(NC(=O)c2ccc3c(c2)C(=O)N(CC2CCCO2)C3=O)cc1 (stereo unspecified)	i	1.7
COCCN(C(=O)COC(=O)/C=C/c1ccco1)c1c(N)n(Cc2ccccc2)c(=O)[nH]c1=O	i	0.31
CCN1CCN(C(=O)c2ccc(Cl)c(S(=O)(=O)N3CCOCC3)c2)CC1	i	-0.06
O=C(COC(=O)c1ccc(Cl)c(S(=O)(=O)N2CCCC2)c1)NC1CCCCC1	i	2.6
Cc1ccc(S(=O)(=O)NCC(=O)OCc2ccccc2)cc1	i	0.64
CCCCCCNC(=O)CCNC(=O)c1cc(OC)c(OC)c(OC)c1	i	-0.22
CC(C)N(Cc1cn(C)nc1-c1cccc(Cl)c1)CC1CCC(=O)N1 (stereo unspecified)	i	-0.52
O=C(CSc1nnc2c(n1)[nH]c1ccccc12)NC1CCCCC1	i	0.96
CCOC(=O)c1cc2c(C)n(-c3ccc(N(C)C)cc3)c(C)c2cc(C(=O)OCC)c1=O	i	-0.25
O=c1[nH]cccc1-c1nc2ccccc2n1Cc1cccc(Cl)c1	i	-1.6
Cc1c(C(=O)Nc2ccc3c(c2)OCCO3)cnn1C	i	0.03

(list continues)
SMILES	KCNQ2 block	KCNQ2 block baseline
Cc1ccc(NC(=S)NNC(=O)c2ccccc2O)c(C)c1	i	-0.82
COc1ccc(Cl)cc1NC(=O)CN(C)Cc1cccs1	i	-0.36
CCn1c(/C=N/c2nc3ccccc3n2C)nc2ccccc21	i	3.1
Cc1ccc(C(C(=O)NC2CCCCC2)N(Cc2cccnc2)C(=O)C2COc3ccccc3O2)o1 (stereo unspecified)	i	1.6
COC(=O)C1=C(N)Oc2cc(C)[nH]c(=O)c2C1c1cc(OC)c(OC)c(OC)c1 (stereo unspecified)	i	-0.02
O=C(NCc1ccccn1)C1CCC(=O)N1C1CCCCC1 (stereo unspecified)	i	1.8
O=C(CN1C(=O)CCSc2ccc(S(=O)(=O)N3CCOCC3)cc21)Nc1cccc(F)c1	i	0.01
Cc1cc(C(=O)NC2CCCN(Cc3ccccc3F)C2)n[nH]1 (stereo unspecified)	i	-0.67
O=C(CSC1=NS(=O)(=O)c2ccccc2N1)NCCc1ccccc1	i	-0.01
CCN(CC)CCN(C(=O)c1ccc2c(c1)OCCO2)c1nc2c(Cl)cccc2s1	i	1.2
CN(C)S(=O)(=O)c1cccc(NC(=O)c2cc(-c3cccs3)nn2-c2cccc(Cl)c2)c1	i	0.22
Cc1ccc(S(=O)(=O)N2CCC(=O)N(C(COCc3ccc(Cl)cc3Cl)Cc3ccccc3)CC2)cc1 (stereo unspecified)	-6*	-1*
O=C(Cn1nnc2ccccc21)OCc1ccccc1	i	0.59
CCOc1ccc(C(=O)NCc2ccc3c(c2)OCO3)cc1	i	-1.3
CCOC(=O)CSc1c(-c2ccccc2)c2cc(Cl)ccc2[nH]c1=O	i	-0.62
CCCC1=Nc2cc(C(=O)NCCCOCC)ccc2Sc2ccccc21	i	-0.43
CC(C)OC(=O)c1cc(NC(=O)c2nn(C)cc2Br)cc(C(=O)OC(C)C)c1	i	0.03
Cc1cc(C(=O)N2CCN(c3ccc([N+](=O)[O-])cc3)CC2)c(C)o1	i	0.37
S=C1NCN(CCc2ccccc2)CN1Cc1ccccc1	i	0.05
CCCCC1=CC2=C(c3ccco3)C(=O)C(C)(OC(=O)c3ccc(OC)cc3)C(=O)C2=CN1C(CO)CO (stereo unspecified)	i	0.32
C=C(C)C(C)(C#CCN1CCCC1)OC(C)=O (stereo unspecified)	i	0.54
CCOC(=O)C1=C(CNCCOc2ccc(OC)cc2)NC(=O)NC1c1ccc2c(c1)OCO2 (stereo unspecified)	i	-0.59
Cn1cnnc1Sc1ccc(/C=C(\CC(=O)O)c2nc3ccccc3s2)cc1[N+](=O)[O-]	i	-0.03
CN(C)c1ccc(/C=N/NC(=O)c2nnn(-c3nonc3N)c2CN2CCCCCC2)cc1	i	0.06
O=C(NCc1cccnc1)c1ccc(S(=O)(=O)N2CCCCCC2)cc1	i	-1.3

Some values from the list:
`CCOC(=O)CSc1c(-c2ccccc2)c2cc(Cl)ccc2[nH]c1=O` in KCNQ2 block baseline shows -0.62
`O=C(CSC1=NS(=O)(=O)c2ccccc2N1)NCCc1ccccc1` in KCNQ2 block baseline shows -0.01

(listing goes on)
SMILES	KCNQ2 block	KCNQ2 block baseline
COc1ccc(N(CC(=O)N/N=C/c2cccc3c2OCCO3)S(=O)(=O)c2ccc(NC(C)=O)cc2)cc1	i	0.33
Cc1cc(C(=O)CSc2ccc(F)cc2)cc(C)c1OC(=S)N(C)C	-6*	1.1*
COc1ccc(CCNC(=O)CSc2nc3ccccc3o2)cc1	i	-0.84
CCc1nc(SCc2ccc(OC)c(Br)c2)n[nH]1	i	-0.05
COc1cc(CNCc2cccs2)ccc1OCC(=O)NC(C)(C)C	i	-0.07
COc1nc(NCCc2ccc(OC)c(OC)c2)nc(OC)n1	i	-0.19
COc1ccc(OC(C)C(=O)Nc2cccc(F)c2)cc1 (stereo unspecified)	i	0.5
O=c1[nH]c(-c2ccccc2)nn1-c1ccc(Br)cc1Br	i	1.6
COC(=O)c1sccc1NC(=S)Nc1cc(C)cc(C)c1	i	-0.26
O=C(O/N=C(\c1ccccc1)c1ccncc1)c1ccccc1F	i	-0.14
COCCN(C(=S)Nc1c(C)cc(C)cc1C)C(C)c1cccs1 (stereo unspecified)	i	0.83
NCCCC[C@H]1CNC(=O)C(=O)N1CCc1cccc(F)c1	i	0.04
Cc1nn(C(=O)C2CC2)c(C)c1Sc1ccc(Cl)cc1	i	1.3
Nc1c(-c2ccc(Cl)cc2)cnn1-c1cc(C(F)(F)F)cc(C(F)(F)F)c1	i	0.48
COCCN1Cc2cccc(C(=O)NCc3ccc4c(c3)OCO4)c2C1=O	i	-1.1
O=C1c2ccccc2C(Nc2ccc(S(=O)(=O)N3CCCCCC3)cc2)N1Cc1ccco1 (stereo unspecified)	i	1.8
Cc1cc(NC(=O)c2ccccc2Oc2ccccc2)no1	i	-0.7
CCN(CC(=O)Nc1cccc(S(=O)(=O)N2CCCCC2)c1)Cc1ccccc1	i	-0.38
CC(C)(C)CN1CCNC(=O)C1CC(=O)NCCN1CCCc2ccccc21 (stereo unspecified)	i	0.53
CNc1oc(C)nc1S(=O)(=O)c1ccc(C)cc1	i	-0.02
CCNc1nc(NCC)nc(C(=O)OCCO)n1	i	0.15
Oc1c(C=Nc2ccc(Cl)cn2)sc2ccccc12	i	1.4
N#Cc1sc(C(N)=O)c(-c2ccccc2)c1-c1ccccc1	i	0.59
COc1ccc2cc3c(nc2c1)OCC3	i	-0.66
Cc1noc(C)c1C(=O)N1CCN(S(=O)(=O)c2cccs2)CC1	i	-2.2

One compound at a time (already shown):
COC(=O)c1sccc1NC(=S)Nc1cc(C)cc(C)c1 is entered as KCNQ2 block: i; KCNQ2 block baseline: -0.26
CCc1nc(SCc2ccc(OC)c(Br)c2)n[nH]1 is entered as KCNQ2 block: i; KCNQ2 block baseline: -0.05

Sorted by value in KCNQ2 block baseline (largest number first): three of the compounds above.
canonical_smiles	KCNQ2 block	KCNQ2 block baseline
COc1cc(CNCc2cccs2)ccc1OCC(=O)NC(C)(C)C	i	-0.07
COc1nc(NCCc2ccc(OC)c(OC)c2)nc(OC)n1	i	-0.19
COc1ccc(CCNC(=O)CSc2nc3ccccc3o2)cc1	i	-0.84

(listing goes on)
SMILES	KCNQ2 block	KCNQ2 block baseline
CC(=O)c1c(C)[nH]c(C(=O)OCC(=O)N2c3ccccc3NC(=O)C2(C)C)c1C	i	0.69
CCOC(=O)NC(=O)/C(C=Nc1ccc(Cl)cc1)=C(\C)O	i	-0.07
COc1cc(C(=O)OCc2nc3ccsc3c(=O)[nH]2)c([N+](=O)[O-])cc1OC	i	1.9
Nc1nc2ccccc2n1Cc1ccc(Cl)c(Cl)c1	i	0.66
Cc1nc(NCc2ccco2)nc2c1C(=O)CC(C)C2 (stereo unspecified)	i	0.52
O=C(O)/C=C/C(=O)NCc1ccccn1	i	0.82
CN(C)/C=C/c1oc2ccc(O)cc2c1[N+](=O)[O-]	i	0.3
O=C(COC(=O)Cc1ccccc1F)Nc1cc(S(=O)(=O)N2CCOCC2)ccc1N1CCCC1	i	-0.02
CCOC(=O)NC(=O)c1cn(N(C)c2ncc(C(F)(F)F)cc2Cl)c(=O)[nH]c1=O	i	1.9
Nc1c(S(=O)(=O)c2ccccc2)c2nc3ccccc3nc2n1CCN1CCOCC1	i	-1
Cc1noc(/C=C/c2cccs2)c1S(=O)(=O)N1CCC(C(=O)NCCCN2CCC(C)CC2)CC1	i	1.4
O=C(NNC(=S)Nc1ccccc1)c1ccncc1	i	-0.01
COc1cc2cc(C)c3nnc(SCC(=O)Nc4cc(C)on4)n3c2cc1OC	i	0.13
COc1cc(C2c3c(-c4ccccc4O)n[nH]c3C(=O)N2Cc2ccco2)cc(OC)c1OC (stereo unspecified)	i	0.26
O=C(/C=C/c1cccc2ccccc12)c1ccncc1	i	-0.02
COCCNC(=O)c1ccc2c(c1)ncn2-c1cccc(C)c1	i	1.8
CCOc1ccc(S(=O)(=O)/N=C(/c2ccccc2)N(C)C)cc1	i	0.95
CS(=O)(=O)Nc1ccc(C2=NN(C(=O)c3ccccc3)C(c3cccs3)C2)cc1 (stereo unspecified)	i	0.18

Some of these compounds in order of number of heavy atoms, smallest number first.
SMILES	KCNQ2 block	KCNQ2 block baseline
CN(C)/C=C/c1oc2ccc(O)cc2c1[N+](=O)[O-]	i	0.3
CCOC(=O)NC(=O)/C(C=Nc1ccc(Cl)cc1)=C(\C)O	i	-0.07
COCCNC(=O)c1ccc2c(c1)ncn2-c1cccc(C)c1	i	1.8
